Screening data from PubChem.
LANA-H2A inh – blocks KSHV LANA binding to histone H2A/H2B. inhibition, % (test concentration not listed). AID 2629. 320,000 compounds, 0.6% hits. cell-free LANA-H2A/H2B peptide, fluorescence polarization. Q9QR71; in the data active means inhibition mostly above about 10%, no sharp cut-off; inactive means mostly below about 6.7%;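 further: stock transfer was 7.5 nL into about 10 µL; 0% = median of vehicle wells and 100% = median of positive control wells; one replicate is shown; the record names a cut of 25% in any replicate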
Target sequence (Q9QR71 whole entry, looked up): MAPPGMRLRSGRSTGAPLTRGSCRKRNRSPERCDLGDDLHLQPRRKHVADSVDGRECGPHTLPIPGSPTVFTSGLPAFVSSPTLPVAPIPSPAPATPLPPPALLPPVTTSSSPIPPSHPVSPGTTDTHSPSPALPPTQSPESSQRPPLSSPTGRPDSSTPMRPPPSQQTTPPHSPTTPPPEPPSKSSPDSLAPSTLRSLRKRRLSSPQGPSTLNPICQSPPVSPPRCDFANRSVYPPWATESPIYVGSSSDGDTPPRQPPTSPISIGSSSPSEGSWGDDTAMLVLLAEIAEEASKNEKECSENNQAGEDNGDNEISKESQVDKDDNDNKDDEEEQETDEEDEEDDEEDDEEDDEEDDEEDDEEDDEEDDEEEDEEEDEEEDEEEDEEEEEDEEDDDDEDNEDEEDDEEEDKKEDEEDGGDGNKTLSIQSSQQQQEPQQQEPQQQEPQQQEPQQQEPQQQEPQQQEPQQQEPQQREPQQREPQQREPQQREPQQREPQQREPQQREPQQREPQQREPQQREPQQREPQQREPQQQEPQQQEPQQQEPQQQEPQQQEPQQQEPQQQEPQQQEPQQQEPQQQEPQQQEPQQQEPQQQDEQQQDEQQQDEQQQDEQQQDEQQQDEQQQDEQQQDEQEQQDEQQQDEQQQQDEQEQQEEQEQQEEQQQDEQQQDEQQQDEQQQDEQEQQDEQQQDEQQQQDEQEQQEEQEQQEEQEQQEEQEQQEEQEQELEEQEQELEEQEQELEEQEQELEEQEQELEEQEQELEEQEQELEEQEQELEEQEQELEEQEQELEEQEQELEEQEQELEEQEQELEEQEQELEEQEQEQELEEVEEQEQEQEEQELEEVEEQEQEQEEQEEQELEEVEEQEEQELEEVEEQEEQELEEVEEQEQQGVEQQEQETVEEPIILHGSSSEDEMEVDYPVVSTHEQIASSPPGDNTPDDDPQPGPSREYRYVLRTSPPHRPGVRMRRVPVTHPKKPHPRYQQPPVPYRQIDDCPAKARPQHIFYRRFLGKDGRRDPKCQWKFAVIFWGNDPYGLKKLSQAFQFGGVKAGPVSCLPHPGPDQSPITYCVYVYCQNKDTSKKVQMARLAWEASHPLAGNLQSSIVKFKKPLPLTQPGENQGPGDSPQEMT
Beta apoptosis – blocks beta cell apoptosis; INS-1E cytokine-induced death, ATP luminescence, 48 h; percent of positive-control rescue, neutral wells zero; protection from apoptosis, % (concentration not given with the values); 300,000 compounds, 0.8% hits; AID 435005;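 active means all replicates at 75% or more, or half of them and the mean; inconclusive means half reach 75% but not the mean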;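 further: 0% = cytokine-treated negative control wells and 100% = positive control rescue; higher means more ATP so stronger rescue from cytokine killing; wells of about 40 µL received 100 nL stock; the first replicate is given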
Calb FLC – affects C. albicans growth with fluconazole; C. albicans CaCi-2 (fluconazole-resistant clinical isolate) + fluconazole, Alamar Blue growth, 48 h; growth inhibition, % (no concentration beside the values); 300,000 compounds, 0.57% hits;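 active means most replicates above 75%; inconclusive means exactly half above 75%; inactive means most below 75%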;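 further: all wells also contain fluconazole at 8 µg/ml as a sub-toxic cotreatment; 0% = median of DMSO wells and 100% = median of geldanamycin control wells; wells of about 8 µL received 7.5 nL stock; the first replicate is given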
Beta2AR agonist – human beta-2 adrenergic receptor agonism by FAP; P07550; Am2.2-beta2AR cells, FAP receptor internalization, flow cytometry; reference of the scale not given here; response, % (test concentration not listed); 340,000 compounds, 0.43% hits;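 active means response above a set limit, near 3 SD of response in nonfluorescent compounds, cut at about 42% in these data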;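 further: stock transfer was 100 nL into about 11 µL; a reference agonist was the positive control; negative values mostly stem from fluorescent compounds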
Bfl-1 A1 inh – inhibitors of the anti-apoptotic protein A1, read as caspase activation. MEF A1-2A-BIM cells, Caspase-Glo 3/7 luminescence, 3 h; percent of clofoctol response, vehicle zero. caspase activation, % (test concentration not listed). 330,000 compounds, 0.066% hits. AID 2462;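 active means over half of replicate activation scores above 10%, or exactly half above 10 with the replicate mean above 10; inconclusive means replicate mean below 10 yet half the replicates above 10; inactive means over half of replicates below 10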;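 further: wells of about 30 µL received 50 nL stock; many hits fall short of the cut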
Ecoli rRNA inh – inhibitors of bacterial rRNA selective over humanized ribosomes; GFP signal change (wild-type ribosome), % (test concentration not listed); E. coli WT GFP vs humanized-ribosome RFP mutants, fluorescence, 24 h; hits give low values; DMSO median 0, no signal -100; 350,000 compounds, 1.6% hits;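 active means significant combined selectivity score with lowered wild-type GFP, culture density cut under 30%, mutant RFP and density less affected; inactive means any of these conditions unmet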; further: one replicate is shown; some compounds called inactive have numbers as strong as hits
ALR inh – human ALR oxidase inhibition via reduced H2O2. P55789. inhibition, % (concentration not given with the values). 290,000 compounds, 3.8% hits. AID 485317. purified ALR, DTT oxidation, H2O2 HRP-luminol luminescence;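 active means mean and each replicate at 75% or more; inconclusive means only one of the two met; inactive means neither met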;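 further: stock transfer was 7.5 nL into about 7.5 µL; 0% = neutral wells and 100% = wells with inactivated enzyme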
T cruzi repl – blocks replication of Trypanosoma cruzi. 300,000 compounds, 1.4% hits. inhibition, % (concentration not given with the values). T. cruzi beta-gal in NIH3T3, luminescence, 90 h. AID 1885;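 active means mean inhibition across valid replicates above about 55%, limit read from the data; inconclusive means mean below that limit but half or more replicates reach it; inactive means mean below it, under half of replicates reach it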;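 further: signal also drops with host cell toxicity which is not excluded here; 0% = plate median of DMSO wells and 100% = zero luminescence signal; higher percent means less beta-gal luminescence so fewer parasites; stock transfer was 50 nL into about 50 µL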
Ecoli rRNA inh OD600 – also measured in Ecoli rRNA inh; calls as there; OD600 change, %; measured here: OD600 growth;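 optical density of the mix in the first replicate; 0 = DMSO median and -100 = no signal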
Ecoli rRNA inh RFP – also measured in Ecoli rRNA inh; calls as there; RFP signal change, %; measured here: RFP humanized mutant strains;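 first replicate; 0 = DMSO median and -100 = no signal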
The depositor's hits bear a star; ? = inconclusive; nt = not tested or not shown. Not all compounds are listed; rates above refer to the full screens.

SMILES	LANA-H2A inh	Beta apoptosis	Calb FLC	Beta2AR agonist	Bfl-1 A1 inh	Ecoli rRNA inh	Ecoli rRNA inh OD600	Ecoli rRNA inh RFP	ALR inh	T cruzi repl
OCCNc1nc(N2CCOCC2)nc(N2CCOCC2)n1	-3.2	-4	-9	4	0.3	25	8	3.1	9	-16
Cc1ccc(NS(=O)(=O)Cc2ccccc2)cc1Cl	2.2	nt	-73	-1	0.5	-21	-24	-7.3	-3	2
COC(=O)c1ccc(C)c(NC(=O)CN(c2ccc3c(c2)OCO3)S(C)(=O)=O)c1	-4.0	3	6	8	-0.7	nt	nt	nt	nt	11
CCc1nc2ccc(Cc3ccc4nc(CC)[nH]c4c3)cc2[nH]1	0.4	7	6	-5	-2.4	6	12	2.6	-5	10
Cc1cccc(C)c1NC(=S)NCCc1ccc(O)c(O)c1	0.7	5	-6	2	0.7	nt	nt	nt	60	-6
O=C(O)c1ccc(S(=O)(=O)N2CCC(NC(=O)C3CCCCC3)CC2)cc1	-3.3	-3	3	1	0.7	6	15	-0.2	1	-3
CCCCOc1ccc(Nc2nc(C)cc(C)c2C#N)cc1	1.1	2	-4	-2	0.0	nt	nt	nt	-44	10
O=C(NCCN1CCNCC1)c1ccccn1	0.4	1	-12	-2	0.0	nt	nt	nt	-3	-2
Cc1ccc(C)c(N2C(=O)CC(Cc3ccc(Br)cc3)C2=O)c1 (centres undefined)	5.5	2	11	-2	0.2	-5	-10	1.0	-20	1
CCOc1ccccc1CN1CCNC(=O)C1CC(=O)NCCc1ccccn1 (centres undefined)	99*	nt	-9	0	-0.4	3	15	0.0	-6	-5
CCOc1cc(S(=O)(=O)n2ccnc2)ccc1Br	3.5	-14	0	-1	1.1	9	-1	-1.4	-3	-19
CCOc1ccc(/C=N/NC(=O)c2ccc(CSc3nc4ccccc4[nH]3)cc2)cc1	-2.0	-1	5	12	-0.3	-6	-5	-2.1	7	6
Cn1cnnc1SCC(=O)Nc1cccc(C(=O)O)c1	-0.9	-1	7	-1	0.8	10	2	-2.9	-5	-8
O=C(OCC(=O)N1CCC(Cc2ccccc2)CC1)c1cc(Cl)ccc1O	1.0	0	-8	-5	-0.3	2	8	-0.8	-5	-8
Cc1cccc(OCCC(=O)N(C)CC(=O)Nc2cccc3ccccc23)c1	0.1	1	-6	5	1.8	-20*	-8.3*	2.6*	1	-7
c1ccc2c(c1)nnn2Cc1nnc2sc(-c3ccncc3)nn12	0.7	-17	-17	-3	0.6	nt	nt	nt	0	21
CNC(=O)NC(=O)CSc1nnc(-c2ccco2)n1-c1ccccc1	3.4	nt	2	-7	0.8	13	16	1.9	0	-6
CC(=O)Nc1ccc(NC(=O)Nc2cccc3ccccc23)cc1	2.7	-4	6	-7	1.1	5	11	0.7	-15	5
CC1CCCCN1S(=O)(=O)c1ccc(NC(=O)CSc2nnnn2C)cc1 (centres undefined)	-1.5	-2	-9	5	0.3	nt	nt	nt	-6	12
O=C(N/C(=C\c1ccc(Cl)cc1)C(=O)N1CCOCC1)c1ccco1	-3.3	-5	-4	-1	-0.6	2	6	1.1	nt	7
Fc1ccc(-c2cc(C(F)(F)C(F)F)[nH]n2)cc1	-4.3	nt	-24	-2	-0.5	-1	-1	-2.8	nt	-7
O=C(CNC(=O)[C@@H]1Cc2ccccc2CN1)Nc1ccc2c(c1)OCCO2	2.8	-4	0	6	0.6	5	7	-1.7	-16	-20
CCOC(=O)CN1C(=O)N[C@@H](c2cccs2)C(C(=O)OC)=C1C	-1.9	-11	-1	-19	-0.2	6	4	0.7	12	-2
CCN(CC)S(=O)(=O)c1nnc(NC(=O)c2ccco2)s1	0.9	-6	39	-6	-0.1	7	-3	0.7	-1	-7
CCC(C(=O)Nc1cccnc1)n1c(=O)[nH]c2ccccc2c1=O (centres undefined)	0.0	-6	-4	-5	-0.1	9	12	4.1	-11	-13
COc1ccccc1C(=O)NC(=O)CSc1nnc(N)s1	-2.7	-2	nt	-2	-2.2	1	1	-0.4	nt	nt
CC(OC(=O)c1ccccc1C(=O)N(C)c1ccccc1)C(=O)Nc1ccc(C(N)=O)cc1 (centres undefined)	-0.5	-1	-4	-3	0.0	0	8	-1.4	8	-3
CCOCCCNC(=O)c1cc2c(=O)n3ccccc3nc2s1	-2.0	4	17	-5	-7.7	4	14	2.1	-56	-4
N#CC(c1ccc(Cl)nn1)c1ccccc1Cl (centres undefined)	2.1	-16	-2	-3	0.8	nt	nt	nt	17	-8
O=C(/C=C/c1ccccc1[N+](=O)[O-])Nc1ccccc1	-2.3	3	-27	-6	-7.9	-5	4	-2.7	31	-27
Cc1ccc(C(=O)NNC(=O)c2cc3ccccc3cc2O)cc1	2.3	-2	91*	1	-4.6	7	0	-1.0	-3	0
Oc1oc(-c2ccccc2Br)nc1/C=N/c1ccccn1	-4.1	1	43	-7	-2.6	5	10	-0.6	11	-6
CCS(=O)(=O)NCC(c1cccnc1)N1CCN(c2ccccc2)CC1 (centres undefined)	7.9	-4	1	1	0.3	7	6	6.1	nt	41
CC(C)(O)CC[C@@H](O)[C@](C)(O)C1CC[C@@]2(O)C3=CC(=O)[C@@H]4C[C@@H](O)[C@@H](O)C[C@]4(C)C3CC[C@]12C (some centres undefined)	4.5	-1	nt	17	-0.2	4	-7	0.3	-9	nt
COc1ccc(NC(=O)CN2CCN(CC(=O)Nc3ccc(F)cc3F)CC2)cc1	nt	nt	-1	0	nt	10	12	-1.4	nt	3
CC(C)n1nc(C(=O)Nc2nnc(C3CC3)s2)c2ccccc2c1=O	2.9	0	3	-7	0.0	4	-1	-1.0	-9	-6
Nc1nn(-c2ccccc2)nc1C(=O)OCc1ccccc1F	1.0	nt	-2	37	0.6	nt	nt	nt	27	-10
CC(=O)c1ccccc1N(C(=O)c1ccco1)C(C(=O)NC1CCCC1)c1ccc(C)cc1 (centres undefined)	-1.6	-3	-2	-12	-0.8	2	-7	-0.6	nt	11
S=c1[nH]nc(CSc2nc3ccccc3s2)o1	1.6	2	3	3	-1.2	nt	nt	nt	99*	-5
CCCNC(=O)COc1coc(CN2CCN(c3ccccc3OC)CC2)cc1=O	-4.6	nt	2	-4	-2.0	7	16	-0.5	11	-14
COc1ccc(CSc2nc(N3CCOCC3)c3c(c2C#N)CC(C)(C)OC3)cc1	-0.4	8	1	9	-0.9	nt	nt	nt	-8	60*
O=C(C(Cc1ccccc1)n1cccc1)N1CCN(c2ncccn2)CC1 (centres undefined)	7.0	0	-1	7	0.4	2	-5	2.0	nt	6
S=C(Nc1ccc(Cl)cc1Cl)N1CCCCC1	0.0	-4	-6	-4	0.0	nt	nt	nt	-6	-26
O=Cc1cc([N+](=O)[O-])ccc1N1CCN(Cc2ccc3c(c2)OCO3)CC1	6.1	-1	-19	6	-0.9	-5	-2	1.3	-3	10
Cc1ccc2oc(=O)c3cnn(CC(=O)N4CCCc5ccccc54)c3c2c1	2.7	5	-4	15	0.8	7	16	-0.4	-2	-11
CCN(CC)CCOC(=O)c1cccc2c1-c1ccccc1C2O (centres undefined)	-6.8	-1	-5	-9	-0.8	-5	1	-6.9	-12	5
O=C1C=C(c2ccc(-c3ccccc3)cc2)C[C@@H](c2ccc3c(c2)OCO3)C1	0.4	5	nt	1	0.9	-8	-12	-4.2	-3	nt
CCCC(=O)NCCCc1nc2ccccc2n1CCC	-1.3	-7	22	-3	-0.5	nt	nt	nt	5	-7
COc1ccc(NC(=O)N2CCCC2C(=O)NC23CC4CC(CC(C4)C2)C3)cc1 (centres undefined)	-5.2	-6	5	7	-0.2	1	10	1.8	nt	-4
NCc1nc(-c2ccc(Cl)cc2)no1	-2.4	3	-18	-1	-0.8	17	6	31	-2	5
CCN(CC)CCCNC(=O)C1c2ccccc2C(=O)N1Cc1ccc(C)cc1 (centres undefined)	1.9	-3	-1	-6	-0.4	nt	nt	nt	-4	-5
CC(=O)c1c(O)cc(C(C)C)n(-c2ccccc2)c1=O	4.2	-4	-5	-9	0.4	nt	nt	nt	-3	-9
Cc1cccc(-c2cc3nc4c(c(N5CCC6(CC5)OCCO6)n3n2)CCCC4)c1	-1.3	14	nt	14	-0.7	9	3	-1.2	3	nt
N#CC1=C(N2CCOCC2)/C(=C\c2ccccc2)CC1	-1.2	-5	-2	-9	-0.3	-27	-32	-6.7	93*	21
CCOC(=O)CSc1nc(C)[nH]c1[N+](=O)[O-]	5.8	1	-8	-7	0.4	3	10	3.5	-7	-8
CN(C)CCCN1C(=O)c2cc3ccccc3cc2C1=O	-1.2	1	0	-3	0.6	12	12	-0.1	-31	-7
Cc1cc(Cl)ccc1OCC(=O)NCc1ccncc1	0.3	5	1	-2	0.6	nt	nt	nt	-1	-1
O=C(c1ccc(F)cc1)N1CCN(c2ccc(N3CCOCC3)nn2)CC1	0.3	-4	5	-1	-0.2	3	-2	-5.8	-14	-3
CCOCc1nnc(NC(=O)c2cc(OC)c(OC)c(OC)c2)s1	-1.8	-5	-21	1	0.0	10	7	2.5	-4	-7
O=C(NCC(c1ccco1)N1CCCCC1)c1ccc(NS(=O)(=O)c2ccc(F)cc2)cc1 (centres undefined)	-0.7	nt	-7	0	0.9	-20*	-16*	3.3*	-4	6

More compounds follow.
SMILES	LANA-H2A inh	Beta apoptosis	Calb FLC	Beta2AR agonist	Bfl-1 A1 inh	Ecoli rRNA inh	Ecoli rRNA inh OD600	Ecoli rRNA inh RFP	ALR inh	T cruzi repl
CCCC(=O)Nc1ccc(C(=O)Nc2nnc(COCC)s2)cc1	7.5	-1	3	-18	-0.9	nt	nt	nt	-3	-17
O=C(NCc1ccco1)C(c1cccs1)N(C(=O)Cc1cccs1)c1ccccc1 (centres undefined)	-0.5	-4	5	1	0.5	nt	nt	nt	nt	8
CC(C)c1ccc(NC(=O)NC(C)c2ccc3c(c2)OCO3)cc1 (centres undefined)	0.3	-2	-11	6	0.1	4	-26	2.9	-6	5
O=C(NCC(c1ccco1)N1CCN(c2ccccc2F)CC1)c1ccco1 (centres undefined)	3.3	4	2	-6	0.5	-6	-14	1.4	-2	17
Cc1ccnc(NS(=O)(=O)c2ccc(NC(=O)c3c(-c4ccccc4Cl)noc3C)cc2)n1	-1.0	2	1	7	-0.2	nt	nt	nt	5	-13
CC(C)c1nc(SCC(=O)Nc2ccc(N3CCOCC3)cc2)c2ccccc2n1	-1.7	-6	5	-6	-0.4	nt	nt	nt	99*	7
CC(=O)Nc1nc2ccccc2n1CCOc1ccccc1	2.7	7	-5	-8	0.4	nt	nt	nt	-5	-23
CCOc1ccc(NC(=O)CCSc2ccc(C)cc2)cc1	-6.4	0	-2	2	0.5	nt	nt	nt	-4	9
COc1ccc(Cc2noc(CN3CCN(Cc4cccc(Cl)c4)CC3)n2)cc1OC	0.8	3	?	1	-0.1	-14	-12	1.4	nt	60*
CN(CC(=O)Nc1ccc(S(N)(=O)=O)cc1)C1CCCCC1	1.4	-2	-3	2	1.1	11	16	-0.8	nt	-7
